TsaE inh = qHTS Assay for Inhibitors of YjeE; Potency, µM; purified YjeE, fluorescence polarisation of a bound ADP probe; 0.05% of 71,000 active; tRNA threonylcarbamoyladenosine biosynthesis protein TsaE (Escherichia coli (strain …; active = well fitted falling curve; inconclusive = weaker or top-dose-only fall, or a rising curve; inactive = flat or poorly fitted curve;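 further: top concentration of the series not given in the record; excess ADP was the control for the full effect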
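Purified YjeE (10 uM) with BODIPY Texas Red-labeled ADP probe (2 uM); compounds pin-transferred, 15 min at room temperature. Binding inhibition read as decreased fluorescence polarization; ADP titration as control.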
Bst PK mod = Pyruvate Kinase; partly purified Bacillus stearothermophilus pyruvate kinase, luminescence ATP production; ribose 5-phosphate activator present at AC10; Potency, µM; 1.2% of 51,000 active; AID 361, 2006; in the data active means potency below about 11 µM; inconclusive means mostly about 12 µM to 25 µM; inactive means weaker than that;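 the screen sought inhibitors and activators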;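 further: potency means the concentration at half of the fitted maximal effect; scaled between full activation by ribose 5 phosphate and full inhibition by luteolin; about four in five hits inhibit and the cells do not say which; series up to 57 µM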
Starred values were filed as active, the others as inactive; i = inactive; ? = inconclusive; / = no result given. These rows are one share of the data, so the mix of outcomes need not match the whole.

mol | TsaE inh | Bst PK mod
Cc1cccc(N=C(N2CCOCC2)P(=O)(N2CCOCC2)N2CCOCC2)c1 | i | >57
O=C(Nc1c(Cl)cccc1Cl)C1CCC1 | i | >57
CC(C)(C)NS(=O)(=O)c1ccc2nc(NC(=O)Cc3cccs3)sc2c1 | i | >57
COc1ccccc1-n1c(=O)oc2ccc(Cl)cc2c1=O | i | >57
O=C(Cn1cccc1)N1CCN(C(c2ccccc2)c2ccccc2)CC1 | i | >57
CCOc1cccc2cc(-c3nnc(NCc4ccco4)s3)c(=O)oc12 | i | /
O=C(CCN1C(=O)COc2ccccc21)NCc1ccco1 | i | >57
CCc1c2c(nc3cccc(SC)c13)COC2 | i | /
O=C(Nc1ccc2c(c1)OCO2)C1CCCN(c2nc3ccccc3s2)C1 (centres undefined) | ? | >57
Cc1cc(C)n2nc(SCn3nnc4ccccc4c3=O)nc2n1 | i | >57
c1ccc(Nc2ncnc3ccc(-c4ccoc4)cc23)cc1 | i | /
NC(N)=NC[C@@H]1COC2(CCCCC2)O1 | i | /
CN1CCN(c2ncc3nc(-c4ccccc4)c(=O)n(-c4ccccc4)c3n2)CC1 | i | /
CCOC(=O)c1oc2cccc(O)c2c1CN1CCOCC1 | i | >57
C[C@@H](C(=O)NCc1ccccn1)[C@H]1C[C@]1(C)[C@H](NC(=O)OCc1ccccc1)c1ccccc1 | i | /

Grouped by structure, the entries above containing a furan ring, fused or not (4)
mol | TsaE inh | Bst PK mod
CCOc1cccc2cc(-c3nnc(NCc4ccco4)s3)c(=O)oc12 | i | /
O=C(CCN1C(=O)COc2ccccc21)NCc1ccco1 | i | >57
c1ccc(Nc2ncnc3ccc(-c4ccoc4)cc23)cc1 | i | /
CCOC(=O)c1oc2cccc(O)c2c1CN1CCOCC1 | i | >57

New compounds follow:
mol | TsaE inh | Bst PK mod
CN(C)CCN(C)Cc1ccc2c(c1)Cc1ccccc1-2 | i | /
Cc1nnc(NC2(C(F)(F)F)C(=O)Nc3c2c(=O)n(C)c(=O)n3C)s1 (centres undefined) | i | >57
Cn1c(=O)n(C/C=C/c2ccccc2)c(=O)c2c1nc1n2CCCN1c1ccc(F)cc1 | i | >57
COc1ccccc1-c1nccc(NCc2cccs2)n1 | i | /
CCOC(=O)N1CCN(C(=O)c2cnsn2)CC1 | i | >57
CC(C)c1nc(SCC(=O)Nc2ccc3c(c2)OCCO3)c2c(=O)n(C)c(=O)n(C)c2n1 | i | /
N#Cc1nc(-c2ccc(OCc3ccccc3)cc2)oc1NCCCN1CCOCC1 | i | 1.88*
CCOc1cc(-c2noc(CCC(=O)N3CCOCC3)n2)ccc1OC | i | >57
COc1ccc(Cl)cc1C(=O)NCCc1ccc(S(=O)(=O)NC(=O)NC2CCCCC2)cc1 | i | >11.4
Cc1ccc(S(=O)(=O)N2CCCC2C(=O)n2nc(C)cc2C)cc1 (centres undefined) | i | ?
CN(C)c1ccc(C(=S)N2CCOCC2)cc1 | i | /
COc1ccc(-n2c(Cc3cccn3C)nnc2SCC(=O)Nc2cccc(F)c2)cc1 | i | /
N#Cc1cccc(NC(=O)NCCc2c[nH]c3ccccc23)c1 | i | /
CCC(C)(C)NC(=O)C(c1ccco1)N(C(=O)c1csnn1)c1cccc(F)c1 (centres undefined) | i | >57
Brc1ccc(-c2noc(COc3ccc4c(c3)CCC4)n2)o1 | i | /

(more compounds)
mol | TsaE inh | Bst PK mod
COc1ccccc1Oc1ccccc1C(=O)O | i | /
CN(CCCNC(=O)C1CCN(S(=O)(=O)c2cccc3nsnc23)CC1)Cc1ccccc1 | i | >57
O=C(NCc1ccc2c(c1)OCO2)c1ccc(NC(=O)C2CCCO2)cc1 (centres undefined) | i | >57
COCCN1C(=O)C(=O)/C(=C(/O)c2cccc(OC)c2)C1c1ccc(C)o1 (centres undefined) | i | >57
Cc1ccc2c(c1)C1CN(C)CCC1N2CC(=O)N(C)c1ccccc1 (centres undefined) | i | >57
O=C(COC(=O)c1cccs1)c1ccccc1 | i | ?
CCCCCC1=C2CNC(CCC)(C(=O)OC)C=C2C(C)C1=O (centres undefined) | i | /
Nc1nc(-c2ccccc2)cs1 | i | /
Cc1ccc2[nH]c(=O)c(CN(CC3CCCO3)S(=O)(=O)c3cccc4nsnc34)cc2c1 (centres undefined) | i | >57
COc1ccc(OC)c(NC(=O)CSc2nc(N)c(-c3ccccc3)c(=O)[nH]2)c1 | i | >57
CCc1nnc(NC(=O)CSc2nc3ccccc3s2)s1 | i | >57
COc1ccc(N2CCN(C(=O)CSc3ccccc3)CC2)cc1 | i | /
C=CCn1c(Cc2cccs2)nnc1SCC(=O)Nc1ccc(OC)c(OC)c1 | i | >57
O=S(=O)(O)c1ccc(N=Nc2ccc3c(S(=O)(=O)O)cccc3c2O)c2ccccc12 | i | /
Cc1nnc2sc(-c3cccc(NC(=O)c4ccc(-c5cccc(Cl)c5)o4)c3)nn12 | i | >57

Remaining list, next part.
mol | TsaE inh | Bst PK mod
Cc1ccc(S(=O)(=O)N2CCCN(S(=O)(=O)c3ccc(C(F)(F)F)cc3)CC2)cc1 | i | >57
CCC(c1nnnn1CCOC)N1CCN(Cc2ccccc2)CC1 (centres undefined) | i | >57
COc1cccc(-c2nnc(SCC(=O)OC(C)C)n2N)c1 | i | ?
CCc1ccc2[nH]c(=O)c(CN(CCCN3CCOCC3)C(=O)Nc3ccccc3)cc2c1 | i | /
O=C(c1cccc(Cl)c1)N1CCN(Cc2ccccc2F)CC1 | i | >11.4
COc1cccc(C(C(=O)NC(C)(C)C)N(C(=O)CCC(=O)Nc2cc(C)on2)C2CC2)c1OC (centres undefined) | i | /
CCn1c(COc2cccc(C)c2)nnc1SCC(=O)CC(=O)Nc1ccccc1OC | i | >57
Cc1cccn2c(=O)c3cc(C(=O)N4c5ccccc5CC4C)n(C)c3nc12 (centres undefined) | i | >57
Cn1c(SCC(=O)Nc2ccccc2)nc(O)cc1=O | i | /
Cc1nc2scc(-c3ccco3)c2c(=O)n1/N=C/N(C)C | i | /
Cc1noc(/C=C/c2ccco2)c1S(=O)(=O)N1CCC(C(=O)N2c3ccccc3CC2C)CC1 (centres undefined) | i | >57
N#Cc1c(-c2ccco2)nc(NCC2CCCO2)[nH]c1=O (centres undefined) | i | >57
CCc1ccc2oc(-c3cc(N=Cc4cccc(OC)c4O)ccc3O)nc2c1 | i | 1.35*
O=S1(=O)N=C(Nc2ccc(S(=O)(=O)N3CCCCC3)cc2)c2ccccc21 | i | >57
CCN1CCN(C(=O)c2sc3nc(C)nc(N4CCC(C)CC4)c3c2C)CC1 | i | >57

(list continues)
mol | TsaE inh | Bst PK mod
O=C(c1cccc(F)c1)N1CCC2(CCCN(C(c3ccccc3)c3ccccc3)C2)CC1 | i | /
COc1ccc(-c2nnc3sc(-c4ccc(Br)o4)nn23)cc1OC | i | >57
Nc1c(C(=O)c2ccc(Br)s2)oc2ccccc12 | i | /
Cc1cc(C)c(C#N)c(SCC(=O)N2CCCCC2)n1 | i | >57
COc1ccc(CNc2ncncc2-c2ccccc2CN(C)C)c(OC)c1 | i | /
O=C(c1cccc(F)c1)N1CCC2(CCCN(c3ncccn3)C2)CC1 | i | /
Clc1ccccc1OCCn1ccnc1 | i | >57
COCCCN1C(=O)C(=O)/C(=C(/O)c2ccc(OC)cc2)C1c1cccc(OC)c1 (centres undefined) | i | >57
C=C(C)c1cccc(C(C)(C)NC(=O)N2CCOCC2)c1 | i | >57
O=C(NCCN1CCCC1)c1ccc2c(c1)N(Cc1ccc(F)cc1)C(=O)c1ccccc1S2=O (centres undefined) | i | /
O=C(c1ccc2c(c1)OCCO2)C1CCN(S(=O)(=O)c2ccc(F)cc2)CC1 | i | 10*
COc1ccc2nc(NC(=O)C3CCCN(S(=O)(=O)c4cccc5nonc45)C3)sc2c1 (centres undefined) | i | >57
O=C(O)c1cc(-c2ccccc2Cl)n[nH]1 | i | >57
Cc1ccc(CNC(=O)C2CCCCC2C(=O)O)cc1 (centres undefined) | i | >57
O=C(c1ccc(CS(=O)(=O)c2ccc(Br)cc2)o1)N1CCN(C2CCCCC2)CC1 | i | /

Carrying on.
mol | TsaE inh | Bst PK mod
COc1ccc(C)cc1S(=O)(=O)Nc1cccnc1 | i | >57
COCCCNC(CC(=O)Nc1ccc(OC)cc1OC)C(=O)O (centres undefined) | i | /
Cc1cccc(NC(=O)CN2C(=O)COc3ccc(Cl)cc32)c1C | i | /
COc1ccc(N(CC(=O)NCc2ccco2)S(=O)(=O)c2ccc(OC)c(OC)c2)cc1 | i | /
O=c1cc(N2CCN(c3ccccc3)CC2)[nH]c(=O)n1C1CCCCC1 | i | >57
COC(=O)c1ccc(C(=O)OC)c(NS(C)(=O)=O)c1 | i | >57
Cc1ccccc1NS(=O)(=O)c1ccc(C2CNC(=O)C2)cc1 (centres undefined) | i | >57
Nc1cc(N)nc(SCCOc2ccccc2F)n1 | i | /
Cc1cc(C)c2c(CC(=O)Nc3nccs3)coc2c1 | i | >57
OC(CN1C2=NCCN2c2ccccc21)c1ccc2c(c1)OCO2 (centres undefined) | i | >57
CCSC1=N/C(=C\c2ccc(C(=O)O)cc2)C(=O)S1 | i | /
CCc1nc2ccccc2c(NC(=O)CN2CCC(C)CC2)c1C | i | >57
CCc1c(C(=O)Nc2ccc(S(=O)(=O)N3CCOCC3)cc2)csc1C | i | >57
Cc1c(NS(=O)(=O)c2ccc3c(c2)CCN3C(=O)C2CC2)c(=O)n(-c2ccccc2)n1C | i | >57
O=S(=O)(NCCOCC(F)(F)C(F)F)c1ccc2oc3ccccc3c2c1 | i | >57

More compounds.
mol | TsaE inh | Bst PK mod
Cn1c(CN2CCCC2)nc2cc(NC(=O)c3ccco3)ccc21 | i | /
CCCCNc1cc(C)oc(=O)c1C(C)=O | i | >57
Cc1ccc(S(=O)(=O)N(C)CC(=O)Nc2cccc(C)n2)cc1 | i | /
O=C(Nc1cc(C(F)(F)F)ccc1N1CCOCC1)c1ccc(Br)o1 | i | >57
O=C(O)CCc1ccc(-c2ccccc2)n1CC(=O)O | i | >57
O=C(Nc1c(C(=O)Nc2ccccc2)cnn1-c1ccccc1)c1ccco1 | i | /
O=C1CC(SCCO)C(=O)N1c1ccc(Oc2ccccc2)cc1 (centres undefined) | i | >57
COc1ccc2c3c([nH]c2c1)[C@H]1C[C@@H]2[C@@H](C[C@@H](O)[C@H](OC)[C@H]2C(=O)O)CN1CC3 | i | /
CCOC(=O)CNC(=O)COc1ccc(Cl)cc1Br | i | /
COC(=O)C1=CN(C2CC2)C=C(C(=O)OC)C1c1ccc(C(=O)OC)cc1 | i | /
COc1cccc(C2=NOC(C(=O)NC3CCCCC3)C2)c1 (centres undefined) | i | >57
COc1ccc(N2CCN(C(CNC(=O)c3ccc4c(c3)OCO4)c3cccnc3)CC2)cc1 (centres undefined) | i | >57
NC(=O)CCCC1=NS(=O)(=O)c2ccccc2N1 | i | >57
CC(=O)NCCOc1nc(N(C)C)nc(N(C)C)n1 | i | >57
CSc1nsc(SCC(=O)NC2CCCCC2)n1 | i | >57

2 entries from above, with values ahead of the structure:
TsaE inh | Bst PK mod | compound
i | / | COc1ccc2c3c([nH]c2c1)[C@H]1C[C@@H]2[C@@H](C[C@@H](O)[C@H](OC)[C@H]2C(=O)O)CN1CC3
i | >57 | CCCCNc1cc(C)oc(=O)c1C(C)=O

Next results follow:
mol | TsaE inh | Bst PK mod
N#Cc1cc(Cl)c(N2CCOCC2)cc1C#N | i | >57
COc1ccccc1CN1CC[C@@]2(CCCN(S(=O)(=O)c3ccccc3)C2)C1 | i | /
CCOC(=O)c1ccc(NC(=O)CN2C(=O)CSC2=O)cc1 | i | /
COc1ccc(N2CCN(C(=O)COc3ccc4ccccc4c3)CC2)cc1 | i | >57
Cc1nc2ccccc2cc1O | / | >25.6
CC(=O)OCC(=O)[C@H]1CC[C@H]2[C@@H]3CC=C4C[C@@H](O)CC[C@]4(C)[C@H]3CC[C@]12C | / | >25.6
Cc1cc(C)n(C(=O)CNC(=O)CCc2ccccc2)n1 | / | >25.6
O=C(c1cc(C(F)(F)F)cc(C(F)(F)F)c1)N1CCC2(CCN(Cc3nccs3)CC2)CC1 | i | /
Cc1ccc(S(=O)(=O)c2cc3c(=O)n4cccc(C)c4nc3n(CC3CCCO3)c2=N)cc1 (centres undefined) | / | >25.6
CCn1c(=O)c(C(=O)NCCNCCO)c(O)c2ccccc21 | i | >57
CCOc1ccccc1CNC(=O)C1CCCN(c2nc3ccccc3o2)C1 (centres undefined) | i | >57
CC1CCN(CCCn2c(=S)[nH]c3ccccc3c2=O)CC1 | i | /
O=C(OCc1nnc(-c2ccccc2)o1)c1cc(=O)c2ccccc2o1 | i | >57
Cc1csc(C(C#N)C(=O)c2cc3ccccc3o2)n1 (centres undefined) | i | ?
O=C(NCCCN1CCOCC1)c1ccccc1-c1ccccc1 | i | >57

(next part)
mol | TsaE inh | Bst PK mod
O=C(O)c1ccc(F)c(S(=O)(=O)Nc2ccccc2Cl)c1 | i | >57
O=C(CN1CCN(Cc2ccccc2Cl)C1=O)NC1CCCCCC1 | i | >57
CC(CN1CCOCC1)OC(=O)c1ccc2c(c1)OCCO2 (centres undefined) | i | >57
CCCOC(=O)CCCCC1SCC(NC(=O)OC)C1NC(=O)OC (centres undefined) | i | >57
Cc1cccc(CNc2cc(-c3ccccc3Cl)ncn2)c1 | i | /
Cc1ccc(OCC(O)Cn2c(=N)n(CCN3CCCCC3)c3ccccc32)cc1 (centres undefined) | i | >57
